Screens from PubChem.
Anaer choline gr = inhibitors of anaerobic choline-dependent gram-negative bacterial growth; Gram-negative bacterium anaerobic choline minimal medium, absorbance growth; hits give low values; many inactives read as strong as hits in the columns shown; calls only; 55,000 tested, 0.2% active; AID 1963822;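 active = growth z-score on choline under -2 at 7 or 20 h with little or no fall on glycerol, limits in tiers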;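 note: stock transfer was 300 nL into about 50 µL; the organism is E. coli; final concentration not given here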
Anaer choline gr early = second read-out of Anaer choline gr, no call of its own (marks repeat the call); z-score; measured here: choline growth z-score, timepoint 1;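 score of optical density at 7 h as mean of two plates; lower means less growth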
The depositor's hits bear a star; i = inactive.

Anaer choline gr early | Anaer choline gr | Molecule
-0.43 | i | COc1ccc(OC)c(NC(=O)C2CCCN(c3nc4cccnc4s3)C2)c1 (stereo unspecified)
-2.6 | i | Cc1ccccc1NC(=O)c1ccccn1
1.6 | i | CC1(C(=O)NC2CCCCC2)Cn2c(ccc2-c2ccccc2)C(=O)N1C1CCCCC1 (stereo unspecified)
-0.87 | i | Fc1ccc(-c2nc(Cn3ccnc3)no2)cc1
-1.2 | i | CC(C)NC(=O)CCn1c(=O)c2ccccc2n2c(=O)n(CC(N)=O)nc12
-0.85 | i | O=c1c2cccnc2nc(SCc2cc(=O)n3ccccc3n2)n1-c1ccccc1
0.28 | i | CCCc1nn2c(=O)cc(CN(CCC)Cc3ccc(C(C)C)cc3)nc2s1
1.8 | i | Fc1ccc(-c2ccc(SCc3nc(-c4ccccc4Cl)no3)nn2)cc1
-0.96 | i | CC(C)COc1ccc(C(=O)N2CCN(CCc3ccccn3)CC2)cc1
0.25 | i | Cc1ccc(-c2cc3nc(-c4ccccn4)cc(C(F)(F)F)n3n2)cc1
0.26 | i | O=C(O)c1cnn2c(-c3ccc4c(c3)OCO4)ccnc12
-1.5 | i | Cc1noc(-c2ccc(S(=O)(=O)N3CCC(N4CCCCC4)CC3)s2)c1C
0.87 | i | Cc1[nH]nc(-c2c(C)sc(C)c2S(=O)(=O)NCCC2=CCCCC2)c1C
-0.59 | i | CC(C)CCNC(=O)CSc1nnc2n(CCC(=O)NC(C)C)c(=O)c3cc(Cl)ccc3n12
-1.3 | i | Cn1c(=O)c(N2CCN(C(=O)C3CCCO3)CC2)nc2ccccc21 (stereo unspecified)
-0.47 | i | COc1cc(C2CC(=O)Nc3c2c(=O)n(C)c(=O)n3C)ccc1OCc1ccccc1 (stereo unspecified)
-0.47 | i | CCCCCCn1c(C2CCCO2)nc2ccccc21 (stereo unspecified)
0 | i | Cc1cc(C)c2nc(C)cc(C(N)=O)c2c1
0.29 | i | CCCCCCC[N+](CC)(CC)CCCCc1ccc(Cl)cc1
-0.06 | i | CC1(C)CC(=O)C2=C(C1)Nc1nc(SCc3ccccc3)[nH]c(=O)c1C2c1ccc(Br)cc1 (stereo unspecified)
-0.63 | i | CCc1nc(-c2ccc(N3CCN(C(=O)C4CC(=O)N(c5ccc(C)c(C)c5)C4)CC3)cc2)no1 (stereo unspecified)
-2.2 | i | O=c1[nH]cnc2c(-c3ccc(F)cc3)csc12
0.61 | i | CCOc1ccccc1NC(=O)N1CCc2c([nH]c3ccccc23)C1CC (stereo unspecified)
0.2 | i | COc1ccc(N2C(C)=NS(=O)(=O)c3cccnc32)cc1OC
0.61 | i | Cc1ccc(C2c3[nH]c4ccccc4c3CCN2C(=O)Nc2cccc(F)c2)cc1 (stereo unspecified)
0.1 | i | CCCNC(=O)N1N=C(c2ccc(N)cc2)c2cc3c(cc2C1C)OCO3 (stereo unspecified)
0.41 | i | CC1Cc2ccccc2N1C(=O)C1CCN(C(=O)c2cc(-c3ccccn3)n[nH]2)CC1 (stereo unspecified)
0.57 | i | COc1cc(OC)c(Nc2cc(C)nc3nc(-c4ccc(C)cc4)nn23)cc1Cl
-0.14 | i | O=C(NCc1ccccc1)c1ccc(-n2cnc3cccnc32)cc1
0.81 | i | COc1ccc(NC(=O)CSc2nnc(-c3ccoc3C)o2)c(OC)c1

Additional records follow.
Anaer choline gr early | Anaer choline gr | Molecule
-0.13 | i | CCc1cc(=O)n2[nH]c(NCc3ccccc3C)nc2n1
0.01 | i | CCCn1c(CCc2ccc(NS(=O)(=O)c3cccc4nsnc34)cc2)nc2ccccc21
0.44 | i | Cc1cc(C)n(-c2nc3c(c(=O)n2CC(=O)N2CCc4ccccc42)CCCC3)n1
0.43 | i | O=C(CCn1cnc2onc(-c3cc(F)cc(F)c3)c2c1=O)NCc1ccc(F)cc1
-1.8 | i | Cc1cc(N(C)C)n2nccc2n1
1 | i | O=S(=O)(Nc1ccc(Cn2cncn2)cc1)c1ccc2c(c1)CCC2
-1.9 | i | O=C(C1CCN(c2ccc(-c3ccc(F)cc3)nn2)CC1)N1CCCC1
-0.18 | i | O=C(NCc1ccc(F)cc1)c1ccc(-c2ccc(S(=O)(=O)NCc3ccccc3)cc2)cc1
0.65 | i | COc1ccccc1N1CCN(C(=O)C2CCCN(S(=O)(=O)c3cn(C)cn3)C2)CC1 (stereo unspecified)
0.56 | i | CC1(C)OC(=O)NC1=O
-0.47 | i | CC1(C(=O)NCc2cccc(F)c2)CCCN(C(=O)CSc2ccccc2)C1 (stereo unspecified)
0.98 | i | Cc1ccc2c(c1)N(C(=O)CN1C(=O)C3CCCC3=Nc3cc(C)c(C)cc31)CCO2 (stereo unspecified)
0.22 | i | Cc1cccc(NC(=O)c2ccc3nnc(SCC(=O)Nc4ccccc4Cl)n3c2)c1
0.32 | i | O=C(COc1ccccc1)NCC(c1ccccc1Cl)c1c[nH]c2ccccc12 (stereo unspecified)
-0.17 | i | CCOC(=O)C1CCN(Cc2cn3c(-c4ccc(OC)cc4)nnc3s2)CC1
0.78 | i | CCCn1c(=O)c2sccc2n2c(CCCC(=O)N3CCN(c4ccccn4)CC3)nnc12
0.43 | i | O=C(CCc1ccc(-n2cnc3cccnc32)cc1)NCc1ccccc1
0.12 | i | CCc1ccc2nc(N3CCC(C(=O)NCc4ccc5c(c4)OCO5)CC3)sc2c1
-1.1 | i | COc1ccc(NC(=O)CN2C(=O)C(C)(C)c3ccccc32)cc1
0.96 | i | O=C(NCc1ccccc1Cl)C(NS(=O)(=O)c1cccc2nsnc12)c1ccccc1 (stereo unspecified)
-0.47 | i | CCOC(=O)Cn1nc2ccc(S(=O)(=O)N3CCSCC3)cn2c1=O
-0.22 | i | CN(C)c1nc2ncn3c(=O)n(CC(=O)Nc4ccc(F)cc4F)nc3c2s1
0.55 | i | CNC(=O)[C@H](Cc1c[nH]c2ccccc12)NC(=O)[C@@H](CC(=O)NO)CC(C)C
0 | i | CC(C)Oc1ccc(C(=O)Nc2sc3c(c2-c2nc4ccccc4s2)CCN(C)C3)cc1
-1.2 | i | Cc1oc(-c2ccccc2)nc1CN1CCN(C(=O)Nc2ccccc2)CC1
0.59 | i | COc1ccc(C2c3c(n(C)c4ccccc34)C(=O)N2CC(=O)Nc2c(C)cccc2C)cc1 (stereo unspecified)
0.5 | i | C=CCn1c(=O)c(=O)n(Cc2ccc(C(=O)NCCCOCC)cc2)c2ccccc21
-2.8 | i | CCc1ccc(C2CC(=O)Nc3c2c(C)nn3-c2nc(C)cc(C)n2)cc1 (stereo unspecified)
0.77 | i | COC(=O)c1cc(Cl)ccc1NC(=O)Cn1ccn2nc(-c3ccc(Cl)cc3)cc2c1=O
0.53 | i | O=c1[nH]c2ccc(NCc3ccccc3)cc2[nH]1

Compound profiles, as listed above. Order of screens: Anaer choline gr early | Anaer choline gr
`CNC(=O)[C@H](Cc1c[nH]c2ccccc12)NC(=O)[C@@H](CC(=O)NO)CC(C)C` is entered as 0.55 | i
`Cc1cccc(NC(=O)c2ccc3nnc(SCC(=O)Nc4ccccc4Cl)n3c2)c1` is entered as 0.22 | i

Next part
Anaer choline gr early | Anaer choline gr | Molecule
0.15 | i | Cc1occc1-c1nnc2sc(-c3cc4ccccc4[nH]3)nn12
0.47 | i | CCN(CC)C(=O)c1cc2c(s1)CCC(C(=O)NC1CCN(C)CC1)C2 (stereo unspecified)
0.43 | i | COc1cccc(CCNC(=O)C2CCCN(c3nc4ccccc4n(Cc4ccccc4)c3=O)C2)c1 (stereo unspecified)
0.15 | i | COc1ccccc1OC(C)C(=O)Nc1ccc2c(c1)NC(=O)CO2 (stereo unspecified)
0.87 | i | CC(C(=O)Nc1ccc2c(c1)OCCO2)n1nc(-c2ccc3c(c2)OCCO3)ccc1=O (stereo unspecified)
0.76 | i | O=C(CSC1=Nc2ccccc2N=C(c2ccccn2)C1)NCc1ccccc1Cl
-0.82 | i | C=CCNC(=O)C1CCCN(C(=O)c2cccc(NS(=O)(=O)c3ccc(C(C)C)cc3)c2)C1 (stereo unspecified)
0.01 | i | CCC(C)NC(=O)N1CCN(Cc2nc3ccc(Cl)cc3o2)CC1 (stereo unspecified)
-0.95 | i | CC1Cc2cc(S(=O)(=O)CCC(=O)NCc3ccc(F)cc3)ccc2N1C(=O)C1CC1 (stereo unspecified)
-1.1 | i | C=CCn1c(CN(c2ccc(F)cc2)S(C)(=O)=O)nnc1SCC(=O)N1CCOCC1
0.62 | i | CCn1c(S(=O)(=O)CCC(=O)O)nc2c(=O)n(C)c(=O)n(C)c21
-1.1 | i | CCSc1nn(CC(=O)Nc2ccc(F)cc2F)c(N)c1S(=O)(=O)c1ccc(Cl)cc1
-0.79 | i | O=C(Nc1ccc2c(c1)OCCO2)N1CCCN(c2nc3cc(Br)ccc3n3cccc23)CC1
1.1 | i | Cc1nc2c(C(=O)NCc3ccc4c(c3)OCO4)cnn2c(C)c1Cc1c(F)cccc1Cl
0.33 | i | COc1ccc(S(=O)(=O)N2CCN=C2N2CCN(c3ccc(F)cc3)CC2)cc1OC
0.51 | i | Cc1nn(C)c(C)c1CCNC(=O)NCC1CCCO1 (stereo unspecified)
0.65 | i | Cc1ccc(Nc2c(C(=O)NCc3ccc4c(c3)OCO4)cnc3c2c(C)nn3C)cc1
-0.15 | i | CCOc1ccc(NC(=O)Nc2cc3c(cc2N2CCOCC2)n(C)c(=O)n3C)cc1
-0.49 | i | COc1ccc(-c2n[nH]c(CCNC(=O)c3cccc(Cl)c3)n2)cc1
0.39 | i | CCCCC/C=C\C\C=C/C=C/C=C/[C@@H](SC[C@H](NC(=O)CC[C@H](N)C(=O)O)C(=O)NCC(=O)O)[C@@H](O)CCCC(=O)O
1.1 | i | Cn1cccc1CN1CCCC(C(N)=O)C1 (stereo unspecified)
0.79 | i | CCOc1ccc(CC(=O)Nc2ccc3c(c2)N(S(=O)(=O)c2ccccc2)CCC3)cc1
-1.1 | i | COc1ccc(C)cc1NC(=O)Nc1cc2c(cc1N1CCCC1)n(C)c(=O)n2C
-0.92 | i | CC1CCCCN1C(=O)c1cc2c(=O)n3ccccc3nc2s1 (stereo unspecified)
0.44 | i | O=C(CN1C(=O)C2CCCN2C(=O)c2cc(F)ccc21)NCCCN1CCCC1 (stereo unspecified)
0.44 | i | CC(=O)N1CCCN(C(=O)C(C)C)CC1
-2.9 | i | CCN1CCc2c(sc(NC(=O)c3ccc(Cl)cc3)c2C(=O)OC)C1
-0.32 | i | N#C[C@@H]1C[C@@H]2C[C@@H]2N1C(=O)[C@@H](N)C12CC3CC(CC(O)(C3)C1)C2
0.25 | i | COc1cccc(C2CC(=O)Nc3c2cnn3-c2nc3ccccc3s2)c1OCc1ccccc1 (stereo unspecified)
-0.12 | i | COc1ccc(NC(=O)Cn2cnc3onc(-c4ccc(Cl)cc4)c3c2=O)cc1OC

Other structures follow:
Anaer choline gr early | Anaer choline gr | Molecule
0.78 | i | Cc1ccc(S(=O)(=O)N2CCCC(c3nc(-c4ccc5c(c4)OCO5)no3)C2)cc1C (stereo unspecified)
0.82 | i | CC(C)Cn1cnc2nc(CSc3ccccc3NC(=O)C(C)C)cc(=O)n21
-0.03 | i | CN1C(=O)COc2ccc(-c3csc(NC(=O)c4cccnc4)n3)cc21
-0.45 | i | Cc1cc(C)c2nc(C)cc(C(=O)N3CCN(C4CCCCC4)CC3)c2c1
1.8 | i | CCOC(=O)c1[nH]c(C)c(CN(Cc2ccc(C)cc2)C(=O)Nc2ccc(OC)cc2)c1C
-1.2 | i | Cc1ccc(NC(=O)Nc2ccccc2SCc2cc(=O)n3c(ncn3CC(C)C)n2)cc1C
-0.13 | i | O=C(C1CCN(c2ncnc3c2sc2ncccc23)CC1)N1CCN(c2ccc(F)cc2)CC1
0.35 | i | O=C(Nc1cc(F)ccc1F)Nc1c(-c2cccnc2)[nH]c2ccccc12
1.2 | i | CCn1c(=O)c(N2CCC(C(=O)NC3CCCCC3)CC2)c(C)n(-c2ccccc2)c1=O
0.13 | i | CCCNC(=O)c1ccc2c(=O)n(CC3CCCO3)c(SCc3ccc(Cl)cc3)nc2c1 (stereo unspecified)
0.44 | i | Cc1ccc(-c2cc(C(=O)Nc3nnc(C)s3)c3ccccc3n2)cc1
1.6 | i | CCc1cc(Sc2ccc(NC(=O)c3ccccc3Cl)cc2)n2ncnc2n1
-1.1 | i | CCOC(=O)C1CCN(C(=O)Cn2cnc3nc(SCC)ncc3c2=O)CC1
-1.1 | i | Cc1ccc(-c2noc(-c3scc(-c4cccc(C)c4)c3-n3cccc3)n2)cc1
-0.07 | i | O=S(=O)(NC1CCCC1)c1cc(-c2noc(C3CCC3)n2)cs1
-1.1 | i | C=CCn1c(=O)c(=O)n(CCC(=O)NCCN2CCCC2)c2ccccc21
-0.28 | i | CCCS(=O)(=O)c1ncc(Cl)c(C(=O)Nc2sc(C)c(C)c2C(=O)OCC)n1
0.61 | i | CC(C)NC(=O)N1CCCC(c2cccc(C(=O)NCCN3CCCCC3C)c2)C1 (stereo unspecified)

Structural class, the entries above containing a thiophene ring, fused or not (12)
Anaer choline gr early | Anaer choline gr | Molecule
-1.5 | i | Cc1noc(-c2ccc(S(=O)(=O)N3CCC(N4CCCCC4)CC3)s2)c1C
0.87 | i | Cc1[nH]nc(-c2c(C)sc(C)c2S(=O)(=O)NCCC2=CCCCC2)c1C
-2.2 | i | O=c1[nH]cnc2c(-c3ccc(F)cc3)csc12
0.78 | i | CCCn1c(=O)c2sccc2n2c(CCCC(=O)N3CCN(c4ccccn4)CC3)nnc12
0 | i | CC(C)Oc1ccc(C(=O)Nc2sc3c(c2-c2nc4ccccc4s2)CCN(C)C3)cc1
0.47 | i | CCN(CC)C(=O)c1cc2c(s1)CCC(C(=O)NC1CCN(C)CC1)C2 (stereo unspecified)
-0.92 | i | CC1CCCCN1C(=O)c1cc2c(=O)n3ccccc3nc2s1 (stereo unspecified)
-2.9 | i | CCN1CCc2c(sc(NC(=O)c3ccc(Cl)cc3)c2C(=O)OC)C1
-0.13 | i | O=C(C1CCN(c2ncnc3c2sc2ncccc23)CC1)N1CCN(c2ccc(F)cc2)CC1
-1.1 | i | Cc1ccc(-c2noc(-c3scc(-c4cccc(C)c4)c3-n3cccc3)n2)cc1
-0.07 | i | O=S(=O)(NC1CCCC1)c1cc(-c2noc(C3CCC3)n2)cs1
-0.28 | i | CCCS(=O)(=O)c1ncc(Cl)c(C(=O)Nc2sc(C)c(C)c2C(=O)OCC)n1

An excerpt, so the mix of outcomes need not match the whole.
